NOMO-1 viab = STK33 inhibitor candidate reducing NOMO-1 cell viability | NOMO-1 AML viability, CellTiter-Glo luminescence, 72 h | inhibition, % (test concentration not listed) | hit rate 7.5% among 37,000;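 active means most replicates above 80%; inconclusive means exactly half above 80%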;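 further: wells of about 30 µL received 25 nL stock; 0% = median of vehicle wells and 100% = reference inhibitor level; the first replicate is given; inactives centre near 10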
The depositor's hits bear a star; ? = inconclusive. An excerpt (hit frequency here may not be typical).

A first look (four entries):
molecule | NOMO-1 viab
C[C@@H]1CN([C@@H](C)CO)C(=O)c2cccc(N(C)C)c2O[C@@H]1CN(C)S(=O)(=O)c1cccs1 | -6.6
O=C(O)C1CCCN1C(=O)OCC1c2ccccc2-c2ccccc21 (stereo unspecified) | 6.5
COc1ccc(S(=O)(=O)NCC2CCCO2)cc1-c1nnc2c3ccccc3c(C)nn12 (stereo unspecified) | 0.5
Cc1nnc(NCc2ccco2)[nH]c1=O | 2.6

The whole of this part (from the top)
molecule | NOMO-1 viab
C[C@@H]1CN([C@@H](C)CO)C(=O)c2cccc(N(C)C)c2O[C@@H]1CN(C)S(=O)(=O)c1cccs1 | -6.6
O=C(O)C1CCCN1C(=O)OCC1c2ccccc2-c2ccccc21 (stereo unspecified) | 6.5
COc1ccc(S(=O)(=O)NCC2CCCO2)cc1-c1nnc2c3ccccc3c(C)nn12 (stereo unspecified) | 0.5
Cc1nnc(NCc2ccco2)[nH]c1=O | 2.6
CC1(C)CC(=O)C2=C(C1)N(Cc1cccnc1)C(=O)C2(NC(=O)c1cccs1)C(F)(F)F (stereo unspecified) | 6.8
C[C@@H]1CN([C@H](C)CO)C(=O)c2cc(NS(=O)(=O)c3cn(C)cn3)ccc2O[C@@H]1CN(C)Cc1ccccc1 | 37.9
C[C@H]1CN([C@@H](C)CO)C(=O)c2cccc(NS(C)(=O)=O)c2O[C@H]1CN(C)C(=O)Nc1ccc(C(F)(F)F)cc1 | 11.0
Cc1sc2nc(SCc3nc4ccccc4[nH]3)n(-c3ccccc3)c(=O)c2c1C | 70.1
Cc1ccc(S(=O)(=O)N(C)C[C@H]2Oc3ccc(NC(=O)Nc4c(C)noc4C)cc3CC(=O)N([C@@H](C)CO)C[C@H]2C)cc1 | 37.1
O=C(NC(=S)NCc1cccnc1)c1cc2ccccc2o1 | 11.4
C[C@@H]1CCCCO[C@@H](CN(C)C(=O)Cc2ccccc2)[C@@H](C)CN([C@H](C)CO)C(=O)c2cc(NC(=O)Nc3ccc(C(F)(F)F)cc3)ccc2O1 | 62.7
CNC[C@@H]1Oc2c(NS(C)(=O)=O)cccc2C(=O)N([C@@H](C)CO)C[C@H]1C | -11.9
CCOC(=O)c1c(NC(=O)c2nc3nc(C)cc(C(F)F)n3n2)sc(C)c1C | 20.8
Cc1noc(C)c1S(=O)(=O)Nc1ccc2c(c1)C(=O)N([C@@H](C)CO)C[C@H](C)[C@@H](CN(C)Cc1ccc(Cl)c(Cl)c1)O2 | -3.6
COc1ccccc1NC(=O)CN(c1ccc(F)c(Cl)c1)S(C)(=O)=O | -1.0
COc1ccc(NC(=O)Nc2ccc3c(c2)C(=O)N([C@H](C)CO)C[C@H](C)[C@@H](CN(C)S(=O)(=O)c2cccs2)O3)cc1 | 2.8
C[C@H]1CN([C@@H](C)CO)C(=O)c2cccc(NC(=O)C3CCOCC3)c2O[C@H]1CN(C)CC1CCCCC1 | 3.2
CCn1c(SCC(=O)Nc2cccc(C(C)=O)c2)nnc1-c1ccncc1 | 25.8
C[C@@H]1CN([C@@H](C)CO)C(=O)c2cc(NC(=O)Nc3ccc4c(c3)OCO4)ccc2O[C@H]1CN(C)Cc1ccncc1 | 16.8
C[C@H]1CN([C@@H](C)CO)C(=O)c2cc(NC(=O)Cc3ccccc3)ccc2O[C@H]1CN(C)C | 6.2
Cc1noc(C)c1NC(=O)N(C)C[C@H]1Oc2ccc(NC(=O)Nc3ccc4c(c3)OCO4)cc2C(=O)N([C@@H](C)CO)C[C@@H]1C | 13.4
O=C1CCC(c2ccccc2)C(=O)C1C(=O)c1ccc(Cl)cc1Cl (stereo unspecified) | 29.0
Cc1noc(C)c1S(=O)(=O)Nc1cccc2c1O[C@H](CN(C)S(=O)(=O)c1ccc(Cl)cc1)[C@H](C)CN([C@@H](C)CO)C2=O | 77.6
Cc1noc(C)c1NC(=O)N(C)C[C@H]1Oc2ccc(NC(=O)Nc3ccc(C(F)(F)F)cc3)cc2CC(=O)N([C@@H](C)CO)C[C@@H]1C | 8.2
Cc1ccc([N+](=O)[O-])cc1NC(=O)CCN1C(=O)c2ccccc2C1=O | 13.7
O=C(CSc1n[nH]c(-c2cccc([N+](=O)[O-])c2)n1)Nc1cccc(C(F)(F)F)c1 | 22.2
COc1ccc(S(=O)(=O)N(C)CC(=O)O)cc1C | 5.8
C[C@H](CO)N1C[C@H](C)[C@H](CN(C)S(=O)(=O)c2cccs2)Oc2ccc(NS(=O)(=O)c3ccc(Cl)cc3)cc2CC1=O | 12.4
Cn1c(=S)[nH]c2sc3c(c2c1=O)CCC(C(C)(C)C)C3 (stereo unspecified) | 123.2*
Cc1cc(OCC(=O)Nc2ccccc2C(N)=O)c(C)cc1Br | 25.4

Taken from above:
`C[C@H](CO)N1C[C@H](C)[C@H](CN(C)S(=O)(=O)c2cccs2)Oc2ccc(NS(=O)(=O)c3ccc(Cl)cc3)cc2CC1=O` in NOMO-1 viab shows 12.4
`C[C@H]1CN([C@@H](C)CO)C(=O)c2cc(NC(=O)Cc3ccccc3)ccc2O[C@H]1CN(C)C` in NOMO-1 viab shows 6.2

Quoted at random: two compounds from above, in no set order.
molecule | NOMO-1 viab
COc1ccc(S(=O)(=O)N(C)CC(=O)O)cc1C | 5.8
O=C1CCC(c2ccccc2)C(=O)C1C(=O)c1ccc(Cl)cc1Cl (stereo unspecified) | 29.0

Not a retest: an excerpt of the list.
molecule | NOMO-1 viab
COc1ccc(NC(=O)Nc2ccc3c(c2)C(=O)N([C@H](C)CO)C[C@H](C)[C@@H](CN(C)S(=O)(=O)c2cccs2)O3)cc1 | 2.8
C[C@H]1CN([C@@H](C)CO)C(=O)c2cccc(NC(=O)C3CCOCC3)c2O[C@H]1CN(C)CC1CCCCC1 | 3.2

Next structures follow:
molecule | NOMO-1 viab
CN(c1cccc(NC(=O)COc2ccccc2)c1)S(C)(=O)=O | -5.5
CCc1cccc(C(C)C)c1NC(=O)Nc1ccccc1 | 36.6
O=C(CSc1nc2sc3c(c2c(=O)n1Cc1ccco1)CCC3)c1ccccc1 | 30.8
CCN(CCC#N)C(=S)Nc1cc(C(F)(F)F)cc(C(F)(F)F)c1 | 6.9
COC(=O)C1=CO[C@@H](O[C@@H]2O[C@H](CO)[C@@H](O)[C@H](O)[C@H]2O)[C@H]([C@H](C)OC(C)=O)[C@@H]1CC(=O)O | -5.8
CC(=O)Cc1cc(=O)c2c(C)cc(O)c(C3OC(CO)C(O)C(O)C3O)c2o1 (stereo unspecified) | 13.2
COc1ccc(CCNC(=S)N2CCN(c3ncccn3)CC2)cc1OC | -10.2
O=C(CN1C2=NCCCN2c2ccccc21)c1ccco1 | -0.3
COc1ccc(C(=O)CSc2cc(C)nc3nc(C)nn23)cc1OC | 10.3
CN(C)NC(=S)NCc1ccc(F)cc1 | 6.3
O=C(NCc1ccco1)c1cc2nc(-c3cccs3)cc(C(F)(F)Cl)n2n1 | 1.5
CS(=O)(=O)N(CC(=O)Nc1cccc(F)c1)c1cccc2ccccc12 | 25.8
C[C@H](CO)N1C[C@H](C)[C@H](CN(C)Cc2ccc(C(F)(F)F)cc2)Oc2c(NS(=O)(=O)c3ccccc3)cccc2C1=O | 20.2
Cc1ccc(S(=O)(=O)N(C)C[C@@H]2Oc3ccc(NS(=O)(=O)c4cccs4)cc3CC(=O)N([C@@H](C)CO)C[C@@H]2C)cc1 | 23.6
O=C(Nc1ccccc1)N(Cc1ccccc1)c1cccc2ccccc12 | 61.5
COC(=O)c1ccc(NC(=O)CN2C(=O)C3C4CC(c5ccccc5)C(C4)C3C2=O)cc1 (stereo unspecified) | 49.3
O=C(COc1ccc(Cl)cc1Cl)Nc1ccc(C(=O)Nc2ccccc2C(=O)O)cc1 | -23.9
C[C@@H]1CN([C@@H](C)CO)C(=O)c2cccc(NC(=O)NC3CCCCC3)c2O[C@@H]1CN(C)S(=O)(=O)c1cccs1 | 39.6
COc1ccc(CN(C)C[C@H]2Oc3ccc(NC(=O)CCC(F)(F)F)cc3C(=O)N([C@@H](C)CO)C[C@@H]2C)cc1 | 17.0
CCc1ccc2c(c1)c1nc3ccccc3nc1n2CC(=O)OC | ?
COc1ccc(NC(=O)CSc2ccccn2)cc1Cl | -18.2
C[C@@H]1CN([C@@H](C)CO)C(=O)Cc2cc(NC(=O)Cc3ccccc3)ccc2O[C@@H]1CN(C)C(=O)Nc1ccccc1 | -11.5
c1ccc2c(c1)CN1CCCC1=N2 | -6.9
NC(=O)CSCC(=O)Nc1ccc(Br)cc1 | -8.5
COc1ccc(NC(=O)Nc2ccc3c(c2)C(=O)N([C@H](C)CO)C[C@H](C)[C@H](CN(C)S(=O)(=O)c2cn(C)cn2)O3)cc1 | 17.6
CCN(CC(=O)Nc1ccccc1Br)S(=O)(=O)c1ccc2ccccc2c1 | 2.3
C[C@@H]1CN([C@@H](C)CO)C(=O)c2cccc(NS(=O)(=O)c3cn(C)cn3)c2O[C@@H]1CN(C)C(=O)Nc1ccccc1 | -12.6
C[C@@H]1CN([C@H](C)CO)C(=O)c2cc(NC(=O)c3ccncc3)ccc2O[C@@H]1CN(C)Cc1ccccc1 | -1.3
C[C@@H]1CN([C@@H](C)CO)C(=O)c2cccc(NS(=O)(=O)c3cccs3)c2O[C@@H]1CN(C)C(=O)Nc1ccc2c(c1)OCO2 | -1.0
C[C@@H]1CN([C@@H](C)CO)C(=O)c2cc(NC(=O)Nc3ccc(C(F)(F)F)cc3)ccc2O[C@@H]1CN(C)Cc1ccc(-c2ccccc2)cc1 | 126.2*
C[C@@H]1O[C@@H](O[C@@H]2CC[C@@]3(C)C(CC[C@]4(C)C3CC=C3[C@@H]5CC(C)(C)CC[C@]5(C(=O)O[C@@H]5O[C@H](CO)[C@@H](O)[C@H](O)[C@H]5O)CC[C@]34C)[C@]2(C)CO)[C@H](O)[C@H](O[C@@H]2OC[C@@H](O)[C@H](O)[C@H]2O)[C@H]1O (stereo partly specified) | 10.1
Cc1ccc(S(=O)(=O)N(C)C[C@H]2Oc3c(NS(=O)(=O)c4ccccc4)cccc3C(=O)N([C@@H](C)CO)C[C@@H]2C)cc1 | -5.9
O=C(CSc1nnc(-c2ccccc2Cl)n1-c1ccccc1)N1CCc2ccccc21 | -3.0
C[C@@H]1CN([C@@H](C)CO)C(=O)c2cccc(NC(=O)c3cnccn3)c2O[C@@H]1CN(C)Cc1ccc(C(=O)O)cc1 | 21.4
C[C@H](CO)N1C[C@H](C)[C@H](CN(C)Cc2ccncc2)Oc2c(NC(=O)c3cnccn3)cccc2C1=O | -2.9
COc1ccc(S(=O)(=O)Nc2cccc3c2O[C@H](CN(C)C)[C@@H](C)CN([C@@H](C)CO)C3=O)cc1 | -11.4
C[C@H]1CN([C@@H](C)CO)C(=O)Cc2cc(NC(=O)NC3CCCCC3)ccc2O[C@@H]1CN(C)C | 9.3
N#Cc1ccccc1CSc1nc(N)cc(=O)[nH]1 | 9.1
C[C@H]1CN([C@@H](C)CO)C(=O)c2cccc(NC(=O)c3cnccn3)c2O[C@@H]1CN(C)Cc1ccc2c(c1)OCO2 | -4.9
COc1ccc(NC(=O)CCCSc2nc(N)c3c(C)c(C)sc3n2)cc1 | 8.6
O=C(COc1cccc(NC(=O)c2ccccc2Cl)c1)c1ccc(F)cc1 | 18.0
O=C(NCCCc1ccccc1)N1c2ccccc2Sc2ccccc21 | 64.8
COc1ccc(C2CC(C(F)(F)F)n3ncc(C(=O)Nc4sc5c(c4C#N)CCC(C)C5)c3N2)cc1OC (stereo unspecified) | 49.5
COC1CC(O[C@H]2CC[C@]3(C)C4CC[C@@]5(C)C(=O)[C@]4(CC[C@@H]3C2)CC[C@@H]5C2=CC(=O)OC2)OC(C)C1OC1OC(COC2OC(CO)C(O)C(O)C2O)C(O)C(O)C1O (stereo partly specified) | 111.1*
C[C@H](CO)N1C[C@H](C)[C@H](CN(C)C(=O)NC2CCCCC2)Oc2ccc(NC(=O)Cn3cnnn3)cc2CC1=O | 14.7

Next records follow.
| compound | NOMO-1 viab |
| --- | --- |
| O=C1CC(c2ccc(O)cc2)Oc2ccccc21 (stereo unspecified) | 11.1 |
| C[C@@H]1CN([C@H](C)CO)C(=O)c2cccc(NS(=O)(=O)c3cccs3)c2O[C@@H]1CN(C)S(C)(=O)=O | -6.7 |
| C[C@H]1CN([C@@H](C)CO)C(=O)c2cc(NS(=O)(=O)c3ccc(F)cc3)ccc2O[C@H]1CN(C)Cc1ccc(Cl)c(Cl)c1 | 11.2 |
| COC(=O)c1cc(NC(=O)COc2ccccc2C)cc(C(=O)OC)c1 | 13.6 |
| O=C(CC12CC3CC(CC(C3)C1)C2)N1CCCC1 | 63.9 |
| C=CC(C)(O)C(O)CC1C(=C)CCC2C(C)(C(=O)O)CCCC12C (stereo unspecified) | -1.2 |
| C[C@H]1CN([C@@H](C)CO)C(=O)c2cccc(NC(=O)c3ccc(-c4nccs4)cc3)c2O[C@H]1CN(C)Cc1ccc(Cl)c(Cl)c1 | 102.3* |
| O=C(CCN1CCCCC1)N1N=C(c2ccc(Cl)cc2)CC1c1ccco1 (stereo unspecified) | 18.1 |
| C[C@H](CO)N1C[C@H](C)[C@@H](CN(C)C(=O)Nc2ccc(C(F)(F)F)cc2)Oc2ccc(NC(=O)Nc3ccc4c(c3)OCO4)cc2C1=O | 20.4 |
| C[C@@H]1CN([C@@H](C)CO)C(=O)c2cc(N(C)C)ccc2O[C@H]1CN(C)S(=O)(=O)c1ccccc1 | 14.6 |
| C[C@@H]1CCCCO[C@H](CN(C)Cc2ccc(C(F)(F)F)cc2)[C@@H](C)CN([C@H](C)CO)C(=O)c2cc(NC(=O)CCC(F)(F)F)ccc2O1 | 18.4 |
| Cc1cc(C(=O)Nc2cccc3c2O[C@H](CN(C)CC2CC2)[C@@H](C)CN([C@H](C)CO)C3=O)n(C)n1 | -4.3 |
| CS(=O)(=O)N(CC(=O)NC1CC2CCC1C2)c1cccc(C(F)(F)F)c1 (stereo unspecified) | -21.4 |
| Cc1ccc(S(=O)(=O)N(C)CC(=O)Nc2ccc(Br)cc2C)cc1 | 44.4 |
| Cc1ccc(C(=O)NCCNc2ccccc2[N+](=O)[O-])cc1 | 16.6 |
| O=C(CC1C(=O)N(c2ccc(F)cc2)C(=S)N1CCN1CCOCC1)Nc1ccc(F)cc1 (stereo unspecified) | 12.3 |
| CCOC(=O)c1ccc(C(=S)N2CCCC2)cc1 | 40.6 |
| CC(O)c1ccc2ccccc2c1 (stereo unspecified) | 13.8 |
